RGS16-Gao HTS: modulators of RGS16 binding to Galphao, primary screen, biochemical, human proteins, multiplexed bead flow cytometry | Regulator of G-protein signaling 16 (Homo sapiens) + Guanine nucleotide-binding protein … | bead-based flow cytometry RGS16-Galphao binding, fluorescence; actives lie on both sides | binding response (% of control), % at 10 µM | 220,000 tested, 0.38% active | AID 1441, 2008;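 active = below 25% or above 175%, edge rows of some plates excepted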;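 also: Galphao activated by GDP with aluminum fluoride before binding; 100% = wells without compound and 0% = beads without RGS; some results beyond the cut were filed as inactive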
PKD1 inh: inhibitors of human PKD1 kinase, biochemical, fluorescence polarization; PKD1 kinase fluorescence polarization assay; 200,000 tested, 0.056% active; Serine/threonine-protein kinase D1 (Homo sapiens), Q15139; inhibition, %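 (about 10 µM by stock and volumes)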;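 active = inhibition of 50% or more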;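 also: controls were vehicle for no effect and a reference inhibitor for full effect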
Target sequence (Q15139 whole entry, looked up): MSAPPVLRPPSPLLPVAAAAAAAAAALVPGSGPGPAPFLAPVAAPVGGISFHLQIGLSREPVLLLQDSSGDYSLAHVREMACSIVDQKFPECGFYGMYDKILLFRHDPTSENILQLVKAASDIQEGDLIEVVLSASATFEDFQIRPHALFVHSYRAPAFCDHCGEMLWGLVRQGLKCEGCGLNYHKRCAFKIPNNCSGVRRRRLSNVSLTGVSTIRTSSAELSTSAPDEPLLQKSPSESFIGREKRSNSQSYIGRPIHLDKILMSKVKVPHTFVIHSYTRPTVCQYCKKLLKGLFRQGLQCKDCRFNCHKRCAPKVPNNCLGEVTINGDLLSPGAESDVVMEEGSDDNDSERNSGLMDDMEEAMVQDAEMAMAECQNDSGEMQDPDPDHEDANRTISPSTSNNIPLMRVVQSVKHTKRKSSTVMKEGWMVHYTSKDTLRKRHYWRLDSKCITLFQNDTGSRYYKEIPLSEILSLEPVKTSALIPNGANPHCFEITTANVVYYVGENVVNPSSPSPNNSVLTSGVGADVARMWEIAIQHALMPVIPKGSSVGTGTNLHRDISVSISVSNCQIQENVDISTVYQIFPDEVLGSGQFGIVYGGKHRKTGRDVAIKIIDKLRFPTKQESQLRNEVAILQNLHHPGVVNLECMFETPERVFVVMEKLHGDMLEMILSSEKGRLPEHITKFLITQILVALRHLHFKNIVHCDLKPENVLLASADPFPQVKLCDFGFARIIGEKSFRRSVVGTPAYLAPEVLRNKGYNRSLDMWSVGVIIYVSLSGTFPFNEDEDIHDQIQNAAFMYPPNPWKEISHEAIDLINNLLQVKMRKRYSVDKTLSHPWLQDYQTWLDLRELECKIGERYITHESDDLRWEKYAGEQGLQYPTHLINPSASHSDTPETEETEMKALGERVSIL
GALR2 ag: GALR2 receptor agonists, primary screen, cell-based; Galanin receptor type 2 (Homo sapiens), O43603; GALR2-expressing cells, agonist activation read-out; activation, %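 (tested at 5 µM)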; 140,000 tested, 0.48% active; AID 803, 2007;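 active = above mean plus 3 SD of all compounds, about 5% in these data, not always enough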;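 also: 0% = vehicle buffer wells and 100% = reference agonist at full effect; tested in CHO reporter cells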
HSV augment: enhancers of HSV replication in host cells, fold increase, host cell viability; maximum fold increase; 220,000 tested, 0.005% active; HSV replication augmentation in cells; AID 1956, 2009;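 active = peak rise of 1.5-fold or more in the series; tested in PC3 cells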;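 also: first round at 10 µM; read as green reporter fluorescence; hits show the peak of a series up to 25 µM; 1 = signal of infected wells without compound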
Insulin prom inh: inhibitors of insulin promoter-driven GFP, primary screen, imaging, TRM-6 cells (human fetal islet line), eGFP reporter, cell count; 130,000 tested, 0.9% active; reporter expression induced with tamoxifen; AID 1273, 2008; inhibition, % at 2 µM;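 active = inhibition above the mean plus 3 SD, with well images judged a real hit on visual review, cut at about 60% in these data, passing the limit was not always enough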
Insulin prom inh cell count: further read-out of Insulin prom inh, marked with its call; normalized cell count, %; measured here: cell count, toxicity; reference of the scale not given here;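 cells exposed to compound for 48 h; stained nuclei by imaging scaled within each plate; lower means fewer cells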
HSV augment primary fold: second read-out of HSV augment, no call of its own (marks repeat the call); fold increase; compound at 10 µM; measured here: primary screen fold increase 10 uM; tested in PC3 cells;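 GFP signal in the first replicate; 1 = infected wells without compound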
An asterisk follows results filed as active; i = inactive; / = no result given.

Results follow in this order: RGS16-Gao HTS	PKD1 inh	GALR2 ag	HSV augment	HSV augment primary fold	Insulin prom inh	Insulin prom inh cell count
CCOC(=O)N1CCN(C(=O)CS(=O)Cc2nc(-c3cccc(C)c3)oc2C)CC1 (stereo not given)
  101	1	-3.9	i	0.85	/	/
C/C(=N\Nc1ccccn1)c1cccs1
  107	-8	/	i	1	/	/
O=C(O)C1CCN(Cc2cccnc2)CC1
  105	7	/	i	0.97	/	/
Cc1ccsc1C(=O)N1CCN(S(=O)(=O)c2cccs2)CC1
  99	0	/	i	1.1	/	/
Cc1ccc(NC(=O)Cn2cnc3c(oc4nc5c(cc43)COC(C)(C)C5)c2=O)cc1
  76	-3	-0.4	i	0.83	-8	108
O=c1[nH]c2ccccc2n1CCCOc1ccccc1
  108	7	-0.8	i	0.95	-3	94
Cc1cccc(C(=O)Oc2ccccc2/C=N/Nc2ccc([N+](=O)[O-])cc2)c1
  110	-14	1.6	i	0.95	-63	106
COc1cccc(CNCCOCCO)c1OC
  116	-4	-0.4	i	0.93	7	127
Cc1ccc(NC(=O)N2CCC(=O)N2)cc1
  103	-5	-3.7	i	0.95	-39	89
Cc1ccc(N2C(=S)SC3CS(=O)(=O)CC32)cc1 (stereo not given)
  101	1	/	i	0.92	21	168
Cc1nn(CC(=O)N2c3ccccc3NC(=O)C2(C)C)c(C)c1[N+](=O)[O-]
  99	3	/	i	0.89	17	104
COc1ccccc1NC(=S)N(CCN(C)C)C(C)c1ccncc1 (stereo not given)
  100	/	/	i	0.92	/	/
Cn1c(-c2ccccc2)c[n+]2c1CCCCC2
  100	-7	/	i	0.97	13	125
CC1CC(C)CN(CCOc2cccc(Cl)c2Cl)C1 (stereo not given)
  102	18	-0.9	i	0.84	-93	37
Cc1ccc(S(=O)(=O)NCC(c2ccccc2)N2CCN(CCC#N)CC2)cc1 (stereo not given)
  102	-4	-2.6	i	0.98	-238	58

Arranged by value in HSV augment primary fold (descending): 6 from the list above.
smiles | HSV augment primary fold
Cc1ccsc1C(=O)N1CCN(S(=O)(=O)c2cccs2)CC1 | 1.1
Cc1ccc(S(=O)(=O)NCC(c2ccccc2)N2CCN(CCC#N)CC2)cc1 (stereo not given) | 0.98
O=C(O)C1CCN(Cc2cccnc2)CC1 | 0.97
Cc1ccc(NC(=O)N2CCC(=O)N2)cc1 | 0.95
COc1ccccc1NC(=S)N(CCN(C)C)C(C)c1ccncc1 (stereo not given) | 0.92
CC1CC(C)CN(CCOc2cccc(Cl)c2Cl)C1 (stereo not given) | 0.84

The listing continues:
Results follow in this order: RGS16-Gao HTS	PKD1 inh	GALR2 ag	HSV augment	HSV augment primary fold	Insulin prom inh	Insulin prom inh cell count
O=c1[nH]cnc2c1N=C(c1cccc([N+](=O)[O-])c1)CC(c1ccccc1)N2 (stereo not given)
  100	-3	/	i	0.86	-49	134
CNc1nc(N)nc(OC(C(F)(F)F)C(F)(F)F)n1
  101	-2	/	i	0.89	12	104
COCCOC(=O)c1c(C)nc(SCC(=O)Nc2ccc(OC)cc2)c(C#N)c1-c1ccco1
  100	-8	-1.4	i	0.92	31	60
O=C(NCC1CCCO1)c1ccc(OC2CCN(C(=O)C3CC3)CC2)cc1 (stereo not given)
  93	-5	/	i	1.2	/	/
Nc1[nH]c(=S)nc2nc(-c3ccccc3)c(-c3ccccc3)nc12
  91	-2	/	i	1.1	-39	149
CCNC(=O)NC(=O)C(C)OC(=O)[C@H](C)NS(=O)(=O)c1c(C)c(C)cc(C)c1C (stereo not given in full)
  90	/	/	i	0.94	/	/
CCN(CC(=O)Nc1cccc(C(C)=O)c1)S(=O)(=O)c1ccccc1
  95	4	/	i	0.97	/	/
Cc1ccc(NC(=O)CSc2nnc([C@H](C)NC(=O)OC(C)(C)C)o2)c(C)c1
  97	/	/	i	0.74	/	/
COCCNC(=O)CNC(c1ccccc1)c1ccccc1
  105	10	/	i	1.1	/	/
O=C(NCCc1ccc(Cl)cc1)Nc1ccc(F)cc1
  101	-2	/	i	0.97	/	/
CN(C)c1nc(N)nc(CSc2ccccn2)n1
  97	2	-1.1	i	1.1	-19	109
Cc1cc(N2CCN(c3cccc(C(F)(F)F)c3)CC2)n2nc(C)nc2n1
  100	10	-1.0	i	0.92	22	90
COc1cc(OC)c(N(C)S(=O)(=O)c2cccc(C(=O)OCC(=O)NCc3ccco3)c2)cc1Cl
  102	7	/	i	0.87	/	/
Cc1ccc(NC(=O)C(OC(=O)c2ccc(O)cc2)c2ccccc2)cc1Cl (stereo not given)
  113	-7	1.5	i	0.95	14	116
COc1ccc(-c2nnc(CSc3nc4ccccc4c(=O)n3CC(C)C)o2)cc1OC
  108	-8	0.3	i	0.83	7	122

Other entries.
Results follow in this order: RGS16-Gao HTS	PKD1 inh	GALR2 ag	HSV augment	HSV augment primary fold	Insulin prom inh	Insulin prom inh cell count
O=C(O)CN1C(=O)SC(Nc2ccccc2)C1=O (stereo not given)
  38	-1	-3.5	i	0.94	-194	72
O=C1CC(c2ccccc2)CC(O)=C1C=NCCN1CCOCC1 (stereo not given)
  104	1	-0.9	i	0.91	/	/
O=C(Cc1ccc(Cl)cc1)Nc1ccc2oc(=O)ccc2c1
  103	/	/	i	0.88	/	/
CNc1nnc(-c2cc3ccccc3oc2=O)s1
  113	0	-0.9	i	0.93	9	58
Cc1ccc(NC(=O)OCc2cc(-c3ccccc3)on2)cc1
  97	-4	/	i	1	/	/
COc1ccc(CNCC(O)(c2ccc(F)cc2)c2ccc(F)cc2)cc1
  98	-6	/	i	0.81	-14	150
CC(C)c1ccccc1NC(=O)c1cnccn1
  100	1	-2.2	i	1.1	0	123
O=c1ccc(C(F)(F)F)cn1Cc1cc(=O)n2cc(Br)ccc2n1
  88	1	/	i	1	36	97
Cc1ccc2cccc(NC(=O)C(F)(F)F)c2n1
  /	-9	0.1	i	0.95	9	60
O=C(COC(=O)c1ccc2ccccc2n1)c1ccccc1
  98	5	/	i	0.92	0	66
COCCCNC(=S)N1CCN(C)CC1
  100	/	/	i	0.9	/	/
CCOC(=O)N1CCC2(O)CCCCC2C1c1ccc(F)cc1 (stereo not given)
  104	-6	-1.9	i	1.1	-39	43
O=S(=O)(Nc1nc2ccccc2nc1NCc1ccco1)c1ccc(Cl)cc1
  99	-5	-1.7	i	1.1	19	49
COc1ccc(S(=O)(=O)n2[nH]c(=O)c(CCO)c2C)c([N+](=O)[O-])c1
  103	9	/	i	1	-12	138
Cc1ccc(C2N=C(N)Nc3nc(=O)c4ccccc4n32)cc1 (stereo not given)
  97	/	/	i	0.98	/	/

Full records from above. Values in the order: RGS16-Gao HTS | PKD1 inh | GALR2 ag | HSV augment | HSV augment primary fold | Insulin prom inh | Insulin prom inh cell count
Shown for Cc1ccc(NC(=O)OCc2cc(-c3ccccc3)on2)cc1 → 97 | -4 | / | i | 1 | / | /
Shown for COc1ccc(CNCC(O)(c2ccc(F)cc2)c2ccc(F)cc2)cc1 → 98 | -6 | / | i | 0.81 | -14 | 150

(further entries)
Results follow in this order: RGS16-Gao HTS	PKD1 inh	GALR2 ag	HSV augment	HSV augment primary fold	Insulin prom inh	Insulin prom inh cell count
Cc1nc(C(=O)N2CCc3c([nH]c4ccccc34)C2c2ccccn2)cs1 (stereo not given)
  108	-4	/	i	0.86	33	97
Cc1ccc(/C=N/NC(=O)C[n+]2ccccc2)o1
  110	4	/	i	1	/	/
CCN(CC(=O)NC1CCS(=O)(=O)C1)C(=O)COc1ccccc1-c1ccccc1 (stereo not given)
  97	-12	-1.3	i	0.8	/	/
COc1ccc(C(=O)CSc2nnnn2Cc2ccccc2)cc1
  112	-15	-1.7	i	0.59	22	143
O=C1CC(N(C(=O)c2ccco2)c2ccc(F)cc2)C(=O)N1c1ccc(F)cc1 (stereo not given)
  102	6	-1.6	i	0.82	-25	151
Cc1c(CNC(=O)C2CC2)c(-n2cccc2)n(Cc2ccccc2)c1C
  106	4	/	i	0.94	/	/
C=C(C)CNC(=S)N/N=C/c1ccco1
  97	/	/	i	0.65	/	/
CN(C)/C=C1/C=C(C=O)OC1=O
  98	/	/	i	0.92	/	/
c1coc(Cn2c(-c3ccco3)nc3ccccc32)c1
  94	5	-2.1	i	1.1	12	115
C=CCn1c(SCc2ccccc2Cl)nnc1-c1sc2nc(C)cc(C)c2c1N
  98	/	/	i	0.86	/	/
O=C(c1ccoc1)N1CCC2(CC1)Oc1ccc(Cl)cc1C(=O)C21CC(c2cccnc2)=NO1 (stereo not given)
  103	/	/	i	1	/	/
C/C(=N\NC(=O)c1cc([N+](=O)[O-])cc([N+](=O)[O-])c1)c1ccco1
  100	-6	/	i	0.96	/	/
CC(=O)C(C)Oc1ncn(-c2ccccc2)n1 (stereo not given)
  105	-5	-0.8	i	0.97	36	108
Cc1c(NN=C(C#N)C#N)c(=O)n(-c2ccccc2)n1C
  98	-2	/	i	1	29	173
COc1ccc(C2Nc3ccccc3C(=O)N2NS(=O)(=O)c2ccccc2)cc1 (stereo not given)
  102	3	/	i	0.99	/	/

(listing goes on)
Results follow in this order: RGS16-Gao HTS	PKD1 inh	GALR2 ag	HSV augment	HSV augment primary fold	Insulin prom inh	Insulin prom inh cell count
Cc1nc2ccc(-c3nc4ccc(N)cc4[nH]3)cc2[nH]1
  104	0	/	i	0.94	/	/
CCC(C)N(C)Cc1cccc(C2(O)CCN(S(=O)(=O)c3ccc(F)cc3)CC2)c1 (stereo not given)
  79	8	0.2	i	1.1	43	76
O=c1cc(-c2ccc(O)cc2)oc2c([C@@H]3O[C@H](CO)[C@@H](O)[C@H](O)[C@H]3O)c(O)c([C@@H]3O[C@H](CO)[C@@H](O)[C@H](O)[C@H]3O)c(O)c12
  113	-9	-1.1	i	0.46	52	92
COC(=O)Cn1nc(C)c2ccccc2c1=O
  98	-4	-2.5	i	0.89	62	121
CCOC(=O)C1CCN(C(=O)CN(c2ccc(OC)cc2)S(=O)(=O)c2c(C)noc2C)CC1
  102	3	-0.4	i	0.95	/	/
COc1ccc(NCC(=O)n2c(C)c(C)c3ccccc32)cc1OC
  85	/	/	i	1	/	/
CCOC(=O)Cn1c2c(c(-c3ccccc3OC)cc1=O)CCCC2
  103	-1	-0.1	i	0.89	/	/
Cc1cc(C)c(S(=O)(=O)n2nc(C)c(Br)c2C)c(C)c1
  93	-9	-0.8	i	0.84	-56	136
CC1(C)COC(c2cccn2Cc2ccccc2Cl)=N1
  98	3	-2.3	i	1.1	-14	107
Cc1ccc(Cn2nc(C)cc2C(=O)Nc2ccc(Cl)cc2)cc1
  98	/	/	i	0.91	/	/
CCCCCc1nc2c(=O)n(C)c3ccccc3c2o1
  102	-2	-2.0	i	0.92	/	/
N#Cc1c(NCCN)nc(-c2ccco2)c2c1CCCC2
  99	0	6.0	i	0.68	10	102
O=C(Nc1ccc(F)c(Cl)c1)c1ccc2c(=O)n3c(nc2c1)CCCCC3
  98	4	-0.6	i	0.85	-29	140
Cc1ccc(S(=O)(=O)N(c2ccc(Br)cc2)C2C=CS(=O)(=O)C2)cc1 (stereo not given)
  104	-3	/	i	1	/	/
CN1CCN(C(=O)CN(c2cccc(Br)c2)S(=O)(=O)c2ccccc2)CC1
  97	11	/	i	1.1	/	/

Remaining list, next part:
Results follow in this order: RGS16-Gao HTS	PKD1 inh	GALR2 ag	HSV augment	HSV augment primary fold	Insulin prom inh	Insulin prom inh cell count
Cc1nc(=S)c2c([nH]1)-c1ccccc1CC21CCCCC1
  109	/	/	i	1.1	/	/
O=C(O)CCn1c(-c2ccccc2)cc2c1CCCC2=O
  180	14	-2.5	i	0.89	/	/
O=C(NCc1ccco1)c1cc(-c2cccs2)nc2ccccc12
  99	-5	-1.7	i	0.88	-64	102
CCC(=O)Nc1cc(C(C)(C)C)ccc1C(C)=O
  101	-5	0.6	i	0.97	29	130
